LANA-H2B inh: blockers of LANA interaction with H2A/H2B – biochemical, FP readout, HTS, primary screen; Protein LANA1 (Human herpesvirus 8 type P (isolate GK18)), Q9QR71; cell-free LANA-H2A/H2B peptide, fluorescence polarization; inhibition, % (no concentration beside the values); 320,000 tested, 0.6% active; AID 2629, 2010; in the data active = inhibition mostly above about 10%, no sharp cut-off; inactive = mostly below about 6.7%;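 also: stock transfer was 7.5 nL into about 10 µL; 0% = median of vehicle wells and 100% = median of positive control wells; one replicate is shown; the record names a cut of 25% in any replicate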
Target sequence (Q9QR71 whole entry, looked up): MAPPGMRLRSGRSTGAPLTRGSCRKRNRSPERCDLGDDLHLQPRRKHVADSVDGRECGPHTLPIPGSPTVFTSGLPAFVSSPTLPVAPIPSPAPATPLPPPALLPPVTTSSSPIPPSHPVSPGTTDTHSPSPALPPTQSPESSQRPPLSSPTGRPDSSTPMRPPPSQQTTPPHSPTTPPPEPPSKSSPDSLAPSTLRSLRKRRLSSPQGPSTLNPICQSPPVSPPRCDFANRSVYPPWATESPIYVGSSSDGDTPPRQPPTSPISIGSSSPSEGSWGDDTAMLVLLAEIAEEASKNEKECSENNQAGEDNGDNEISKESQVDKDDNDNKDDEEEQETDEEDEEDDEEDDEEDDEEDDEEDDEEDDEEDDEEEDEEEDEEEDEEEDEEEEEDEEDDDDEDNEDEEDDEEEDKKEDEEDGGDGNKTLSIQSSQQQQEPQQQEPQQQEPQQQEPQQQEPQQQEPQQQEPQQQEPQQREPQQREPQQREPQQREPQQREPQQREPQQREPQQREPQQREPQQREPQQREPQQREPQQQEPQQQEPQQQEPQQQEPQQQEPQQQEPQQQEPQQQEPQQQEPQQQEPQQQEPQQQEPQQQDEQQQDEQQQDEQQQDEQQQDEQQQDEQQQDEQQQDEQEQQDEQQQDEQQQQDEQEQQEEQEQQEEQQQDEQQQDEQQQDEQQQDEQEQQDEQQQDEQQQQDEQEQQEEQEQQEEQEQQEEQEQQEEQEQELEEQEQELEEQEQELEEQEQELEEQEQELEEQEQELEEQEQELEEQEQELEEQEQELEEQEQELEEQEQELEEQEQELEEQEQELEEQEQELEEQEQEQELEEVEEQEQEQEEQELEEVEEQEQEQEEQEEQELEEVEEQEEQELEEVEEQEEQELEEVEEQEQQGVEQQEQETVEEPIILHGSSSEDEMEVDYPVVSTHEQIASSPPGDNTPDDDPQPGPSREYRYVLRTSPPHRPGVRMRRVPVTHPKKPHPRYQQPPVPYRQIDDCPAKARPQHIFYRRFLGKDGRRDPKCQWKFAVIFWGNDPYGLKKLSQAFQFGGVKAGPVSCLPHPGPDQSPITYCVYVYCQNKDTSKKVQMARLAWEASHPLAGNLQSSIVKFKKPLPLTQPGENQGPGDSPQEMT
ALR H2O2 inh: inhibitors of human ALR sulfhydryl oxidase, primary screen, biochemical, H2O2 detection, HRP-luminol luminescence, single point | 290,000 tested, 3.8% active | purified ALR, DTT oxidation | inhibition, % (no concentration beside the values);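 active = mean and each replicate at 75% or more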;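 also: stock transfer was 7.5 nL into about 7.5 µL; 0% = neutral wells and 100% = wells with inactivated enzyme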
Beta2AR agonist: beta2AR agonists driving receptor internalization, primary screen, cell-based, FAP fluorogen, flow cytometry; Am2.2-beta2AR cells; reference of the scale not given here; Beta-2 adrenergic receptor (Homo sapiens), P07550; response, % (test concentration not listed); 340,000 tested, 0.43% active;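 active = response above a set limit, near 3 SD of response in nonfluorescent compounds, cut at about 42% in these data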;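 also: stock transfer was 100 nL into about 11 µL; a reference agonist was the positive control; negative values mostly stem from fluorescent compounds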
FGF22 binding: binders of human FGF22 protein, primary screen, FGF22 synaptogenesis inhibitor project, biophysical, thermal shift, single point. calls only at 9.99 µM. AID 651658, 2012. recombinant FGF22 thermal shift, SYPRO orange fluorescence; percent of sucrose octasulfate shift, DMSO zero. Fibroblast growth factor 22 (Homo sapiens), Q9HCT0. 340,000 tested, 1.5% active;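 active = melting point raised past a set limit in the mean and every replicate; three in four hits are not shown here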
E coli growth: E. coli growth inhibition, primary screen, OD600 | Escherichia coli growth, 23 h; active compounds read low | OD600 absorbance (no concentration beside the values) | 330,000 tested, 0.21% active;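 active = OD600 absorbance below the run mean of sample wells minus 3.6 SD, in any replicate, cut at about 0.56 in these data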;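 also: stock transfer was 300 nL into about 60 µL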
UCH37 inh: inhibitors of human UCH37 deubiquitinase, primary screen, biochemical, Ub-AMC cleavage, fluorescence; Ubiquitin carboxyl-terminal hydrolase isozyme L5 (Homo sapiens), Q9Y5K5; inhibition, % (concentration not given with the values); 330,000 tested, 0.33% active; AID 588478, 2011; purified proteasome/UCH37;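 active = mean of two replicates above 20%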;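 also: 0% = compound-free wells with enzyme and 100% = wells lacking proteasome; stock transfer was 100 nL into about 20 µL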
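system = Proteasome-associated human UCH37 deubiquitinase | amount = 0.15 nM proteasome as dispensed | medium = pH 7.4 Tris-HCl (50 mM) with ovalbumin, ATP-MgCl2, DTT | incubation = 30 min preincubation with enzyme, 25 min cleavage at room temperature | detection = AMC fluorescence 355/460 nm | read-out basis = percent inhibition | controls = no-proteasome and no-compound wells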
HNF4A DNA FP: change in binding of human HNF4A to DNA, primary screen, biochemical, fluorescence polarization, FITC-DNA | Hepatocyte nuclear factor 4-alpha (Homo sapiens), P41235 | 1 h | activity change, % at 10 µM | 360,000 tested, 0.3% active; in the data active = activity change above about 30%, passing the limit was not always enough;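 also: controls were the assay level and a saturating level of protein; the project sought stronger binding though the title names inhibitors; some compounds called inactive have numbers as strong as hits; positive values seem to mean higher polarization but the record does not say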
Numbers without * were called inactive; i = inactive; nt = not tested or not shown. These rows are one share of the data; count on the stated rates, not on these rows.

SMILES	LANA-H2B inh	ALR H2O2 inh	Beta2AR agonist	FGF22 binding	E coli growth	UCH37 inh	HNF4A DNA FP
Cc1ccc(Cl)cc1N1CCN(C(=O)c2ccc3c(c2)CCN3S(C)(=O)=O)CC1	nt	-36.3	8.2	i	nt	nt	-0.4
O=C(NCCc1nnc2ccc(NCCCN3CCOCC3)nn12)c1ccccc1	-0.6	-5.1	2.7	i	0.742	1.3	18.3
CC(C)c1ccc(NC(=O)C(c2ccccc2)N(C)C(=O)c2cnccn2)cc1 (stereo unspecified)	0.2	0.5	-2.5	i	0.712	1.9	3.6
N#Cc1ccc[n+](CC(=O)c2ccc(NC(=O)c3ccccc3)cc2)c1	2.2	10.9	3.0	i	0.678	4.5	2.3
CCOc1ccc(CNC(=O)Cn2c(=O)c3cccn3c3ccccc32)cc1	1.7	-4.3	2.4	i	0.712	-1.8	2.2
NC(N)=NCCCc1cn(CC(=O)N2CCNCC2)nn1	3.8	-5.5	0.1	i	0.725	1.5	-6.6
CCOC(=O)c1cc2c(N)c(C(=O)c3ccc(Br)cc3)sc2[nH]c1=O	0.1	0.0	-2.0	i	0.697	5.4	-2.0
CN(C)CCCNC(=O)C[C@H]1C[C@H](C(=O)N2CCOCC2)[C@@]2(C)c3[nH]c4cc(CCC(=O)N(C)C)ccc4c3CCN2C1=O	nt	nt	11.2	i	0.693	3.6	-1.6
CC(NC(=O)C12CC3CC(CC(C3)C1)C2)C(=O)NN=Cc1ccc([N+](=O)[O-])o1 (stereo unspecified)	4.5	-20.4	3.2	i	0.732	11.9	2.5
Cc1ccc(-n2c(SCC(=O)Nc3cc(C)on3)nc3c(c2=O)SC(C)C3)cc1 (stereo unspecified)	7.1	90.5*	-16.2	i	0.767	2.1	-1.7
CCOC(=O)CN1C(=O)S/C(=C/c2cc(C)n(C)c2C)C1=O	-4.7	54.1	-2.4	nt	0.759	7.6	-1.2
Cc1ccc2nc(-c3ccncc3)c(NC3CCCC3)n2c1	-2.4	nt	-9.6	i	0.663	-17.9	-4.8
O=c1c(Cl)c(N2CCC3(CC2)OCCO3)cnn1C12CC3CC(CC(C3)C1)C2	5.3	-4.8	-11.9	i	0.64	14.2	-0.7
CCC/C(C)=N/NC(=O)c1ccccc1O	-2.7	nt	-3.9	nt	nt	nt	-1.4
COCCCNc1nc2ccccc2nc1NS(=O)(=O)c1ccc(F)cc1	-2.3	nt	-2.2	i	0.674	-77.7	2.3
CCOC(=O)/C(C#N)=C/c1c(N2CCN(c3ccc(OC)cc3)CC2)nc2c(C)cccn2c1=O	1.2	-15.3	9.6	i	0.676	3.9	-2.8
Cc1cc(C)c(-c2cc(C)nc3ncnn23)c(C)c1	-1.6	nt	1.2	i	0.694	1.8	-21.3
COC(=O)c1ccc(NC(=O)c2cccc(Cl)c2)o1	1.0	92.8*	11.4	nt	0.688	2.9	0.5
CCOC(=O)c1cnc2ccc(Cl)cc2c1Nc1ccc(S(=O)(=O)Nc2ncccn2)cc1	2.2	-14.7	-0.9	nt	0.688	7.4	-1.2
C=CCN1C(=O)/C(=C\c2ccc(OC(=O)c3ccco3)c(OC)c2)SC1=S	-2.3	-2.7	-25.0	i	0.691	5.9	19.9
COc1ccc(NC2=C(NCCO)C(=O)c3ccccc3C2=O)cc1	6.5	-85.3	66.3*	i	0.692	15.7	-1.0
Cc1c(C(=O)NCCN2CCOCC2)oc2ccc(S(=O)(=O)N3CCCCCC3)cc12	-2.1	6.6	-1.1	nt	0.711	-0.1	-1.1
CN(Cc1ccccc1)C(=O)CN1C(=O)C2C3C=CC(C3)C2C1=O (stereo unspecified)	5.6	-5.2	-2.4	nt	0.75	2.0	-3.5
Cc1c(C(=O)O)cc(C(C)(C)C)n1CCSCCO	5.5	5.5	3.7	i	0.655	4.1	-3.1
CCOC(=O)CSc1cc(C)nc(N)n1	-4.2	nt	2.3	nt	0.69	4.4	-3.3
C=CCn1c(-c2ccoc2C)n[nH]c1=S	-1.7	4.2	16.9	nt	0.689	1.3	1.6
COCCNC(=S)N/N=C(\C)CCc1ccc2c(c1)OCO2	-5.0	4.0	-1.2	i	nt	nt	5.4
COc1ccc(OCC(=O)NC(CC(=O)O)c2ccc(OC)c(OC)c2)cc1 (stereo unspecified)	-6.7	4.0	0.0	i	0.722	6.9	1.3
CC[C@@H](C)[C@H](NC(=O)CCc1c(C)c2cc3c4c(oc3c(C)c2oc1=O)CCCC4)C(=O)O	-2.1	nt	4.5	i	0.639	-70.2	1.1
COc1ccc(C=C(C(=O)O)c2ccc(OC)cc2)cc1	nt	nt	2.4	i	0.657	-1.2	1.9

13 entries out of the list, sorted by length of the SMILES, descending.
SMILES	LANA-H2B inh	ALR H2O2 inh	Beta2AR agonist	FGF22 binding	E coli growth	UCH37 inh	HNF4A DNA FP
CC(NC(=O)C12CC3CC(CC(C3)C1)C2)C(=O)NN=Cc1ccc([N+](=O)[O-])o1 (stereo unspecified)	4.5	-20.4	3.2	i	0.732	11.9	2.5
CCOC(=O)c1cnc2ccc(Cl)cc2c1Nc1ccc(S(=O)(=O)Nc2ncccn2)cc1	2.2	-14.7	-0.9	nt	0.688	7.4	-1.2
O=c1c(Cl)c(N2CCC3(CC2)OCCO3)cnn1C12CC3CC(CC(C3)C1)C2	5.3	-4.8	-11.9	i	0.64	14.2	-0.7
C=CCN1C(=O)/C(=C\c2ccc(OC(=O)c3ccco3)c(OC)c2)SC1=S	-2.3	-2.7	-25.0	i	0.691	5.9	19.9
CC(C)c1ccc(NC(=O)C(c2ccccc2)N(C)C(=O)c2cnccn2)cc1 (stereo unspecified)	0.2	0.5	-2.5	i	0.712	1.9	3.6
N#Cc1ccc[n+](CC(=O)c2ccc(NC(=O)c3ccccc3)cc2)c1	2.2	10.9	3.0	i	0.678	4.5	2.3
O=C(NCCc1nnc2ccc(NCCCN3CCOCC3)nn12)c1ccccc1	-0.6	-5.1	2.7	i	0.742	1.3	18.3
COc1ccc(NC2=C(NCCO)C(=O)c3ccccc3C2=O)cc1	6.5	-85.3	66.3*	i	0.692	15.7	-1.0
COc1ccc(C=C(C(=O)O)c2ccc(OC)cc2)cc1	nt	nt	2.4	i	0.657	-1.2	1.9
Cc1cc(C)c(-c2cc(C)nc3ncnn23)c(C)c1	-1.6	nt	1.2	i	0.694	1.8	-21.3
NC(N)=NCCCc1cn(CC(=O)N2CCNCC2)nn1	3.8	-5.5	0.1	i	0.725	1.5	-6.6
Cc1c(C(=O)O)cc(C(C)(C)C)n1CCSCCO	5.5	5.5	3.7	i	0.655	4.1	-3.1
C=CCn1c(-c2ccoc2C)n[nH]c1=S	-1.7	4.2	16.9	nt	0.689	1.3	1.6

The list goes on:
SMILES	LANA-H2B inh	ALR H2O2 inh	Beta2AR agonist	FGF22 binding	E coli growth	UCH37 inh	HNF4A DNA FP
COc1ccccc1C(CNC(=O)CSc1ccc2ccccc2c1)N(C)C (stereo unspecified)	-15.6	-20.5	9.0	i	0.694	4.1	-1.4
O=S(=O)(Nc1ccc2nc(C(F)(F)F)[nH]c2c1)c1ccccc1	-2.6	-0.8	-2.0	nt	0.682	1.1	2.0
NC(=O)CC(NC(=O)Cc1ccc(Cl)cc1)c1ccc(NC2CCCCCCC2)c([N+](=O)[O-])c1 (stereo unspecified)	-5.4	-3.5	0.5	nt	0.66	0.6	3.0
Cc1ccc(OCc2cc(C(=O)NC3CCc4ccccc43)no2)cn1 (stereo unspecified)	8.2	-2.2	-2.9	i	0.685	0.0	0.1
O=C(NCc1cccnc1)Nc1cccc(F)c1	-2.2	-0.4	0.2	i	0.703	2.2	-0.8
O=C(CCc1nc2ccccc2s1)OCC(=O)N1CCN(C(=O)c2ccco2)CC1	0.4	-3.9	7.9	nt	0.688	2.6	2.4
CCn1c(SCC(=O)N2CCCC(C)C2)nnc1-c1ccco1 (stereo unspecified)	-1.1	-6.0	-6.5	i	0.674	0.8	4.2
Cc1cccc(-n2c(SCC(=O)O)nc3sc4c(c3c2=O)CCC4)c1	4.9	0.3	-6.9	i	0.712	5.2	-0.1
CCCCC1=CC2=CC(=O)C(C)(OC(=O)CC)C(=O)C2=CN1C1CCCC1 (stereo unspecified)	-3.8	-6.0	-1.6	i	0.671	2.0	-0.8
C=CCn1c(=O)n(CCC#N)c(=O)n(CCC#N)c1=O	3.5	0.5	-9.9	nt	0.653	2.1	3.6
O=C(Nc1cccc(O)c1)c1cc(-c2ccc3c(c2)OCO3)on1	-3.9	nt	1.3	i	nt	nt	3.4
c1ccc(-n2ncc3c(NCCCN4CCOCC4)ncnc32)cc1	-4.6	-4.5	-4.8	nt	0.717	-1.1	-2.1
COc1ccc2nc(NC(=O)c3cnccn3)sc2c1	-1.6	-15.3	-6.6	nt	0.724	3.0	-4.9
Cc1[nH]c(=O)[nH]c(=O)c1S(=O)(=O)N1CCCC(C(=O)NCc2ccc3c(c2)OCO3)C1 (stereo unspecified)	-0.6	-3.6	3.6	i	nt	nt	-1.5
CC(COc1ccc(/C=C/c2ccccc2)cc1)[N+](C)(C)C (stereo unspecified)	nt	nt	-8.0	i	nt	1.5	-1.6
COc1ccc(C)cc1N(CC(=O)N/N=C/c1ccccc1C(=O)O)S(=O)(=O)c1ccccc1	-1.2	13.7	-4.0	i	nt	nt	0.1
COc1ccc2nc(C)c3c(c2c1)OC(C)C3 (stereo unspecified)	5.1	-25.1	-9.6	nt	0.714	-11.9	-2.1
COc1ccc(CNc2n[nH]c(NCc3ccc(OC)c(OC)c3)n2)cc1OC	-0.3	2.1	-5.5	nt	0.737	3.7	1.8
O=C(N1CCOCC1)C12CCC3CC(CC(C3)C1)C2	4.3	0.7	3.6	nt	0.782	3.9	0.8
C=CCNC(=O)/C(=C\c1ccc2c(c1)OCO2)NC(=O)c1ccc(Br)cc1	3.5	-4.6	13.6	i	nt	0.2	-1.0
Cc1ccc(N=Nc2c(O)ccc3n[nH]nc23)cc1	2.4	51.9	14.7	i	nt	nt	2.0
Cc1cc(NC(=O)CCSc2nc(-c3ccco3)cc(C(F)(F)F)n2)no1	4.0	nt	1.6	nt	nt	-37.8	2.2
COC(=O)c1sc(NC(=O)CSc2n[nH]c(N)n2)c(C(=O)OC)c1C	3.0	-6.6	7.9	i	0.69	0.1	5.7
COCCNC(=O)CSc1nc2cc3c(cc2c(=O)n1Cc1ccco1)OCO3	-0.5	-1.1	-0.3	nt	0.742	-2.2	2.4
O=Cc1cccn1Cc1ccccc1[N+](=O)[O-]	-11.7	-20.4	10.8	i	0.702	-0.1	-4.7
CCOc1ccc(Oc2nc(Nc3ccc(C)cc3)nc(N(C)C)n2)nn1	1.7	nt	1.6	nt	0.765	1.8	-3.7
